Screening results as filed in PubChem BioAssay.
TRPV1 PAM – HTS Assay for Compounds that Act as Potentiators of the Vanilloid Receptor 1; Transient receptor potential cation channel subfamily V member 1 (Homo sapiens), Q8NER1; TRPV1-expressing cells, Fluo-8 calcium influx, capsaicin EC20 potentiation; host cell line not named in the record; control for the full effect not named in the record; potentiation, % at 8.33 µM; hit rate 0.02% among 320,000; AID 540277, 2011; active means potentiation above 80%; inconclusive means 30% to 80%; inactive means below 30%; further: 0% is about no effect
Target sequence (Q8NER1 whole entry, looked up): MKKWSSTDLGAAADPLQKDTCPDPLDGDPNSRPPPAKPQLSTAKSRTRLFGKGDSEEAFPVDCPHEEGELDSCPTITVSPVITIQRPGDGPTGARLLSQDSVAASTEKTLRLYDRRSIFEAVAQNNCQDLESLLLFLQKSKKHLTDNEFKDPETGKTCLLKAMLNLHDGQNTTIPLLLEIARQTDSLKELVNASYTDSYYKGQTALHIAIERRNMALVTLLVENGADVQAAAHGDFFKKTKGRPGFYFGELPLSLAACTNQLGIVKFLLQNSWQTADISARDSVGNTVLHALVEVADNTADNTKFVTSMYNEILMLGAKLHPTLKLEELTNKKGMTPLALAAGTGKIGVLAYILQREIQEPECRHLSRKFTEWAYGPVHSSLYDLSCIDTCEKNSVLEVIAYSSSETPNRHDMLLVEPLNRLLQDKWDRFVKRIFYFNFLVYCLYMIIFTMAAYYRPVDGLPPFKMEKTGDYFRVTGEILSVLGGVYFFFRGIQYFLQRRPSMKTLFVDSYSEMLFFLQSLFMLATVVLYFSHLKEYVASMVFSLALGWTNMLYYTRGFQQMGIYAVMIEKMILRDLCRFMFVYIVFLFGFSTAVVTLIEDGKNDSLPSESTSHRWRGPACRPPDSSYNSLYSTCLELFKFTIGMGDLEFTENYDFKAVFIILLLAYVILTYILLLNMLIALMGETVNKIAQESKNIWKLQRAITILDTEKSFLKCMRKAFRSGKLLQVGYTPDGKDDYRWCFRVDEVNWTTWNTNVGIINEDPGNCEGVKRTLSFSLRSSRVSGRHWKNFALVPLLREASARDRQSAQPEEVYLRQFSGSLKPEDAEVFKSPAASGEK
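TRPV1-expressing cells were cultured overnight at 35.5C and loaded with Fluo-8 calcium dye for 40 to 90 min at room temperature. After a 10 s baseline, compound was added and calcium influx was read kinetically for 3 min (ex 480/em 520 nm).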
gsp antagonist – qHTS for Antagonists of gsp, the Etiologic Mutation Responsible for Fibrous Dysplasia/McCune-Albright Syndrome: qHTS. gsp-mutant cells, cAMP HTRF, 30 min; control for the full effect not named in the record. Potency, µM (series often up to 76.9 µM), inactives show at the highest dose activity change, negative = inhibition, actives largely listed as inhibitors. hit rate 0.4% among 340,000; active = falling curve of any shape with a large fitted effect; inconclusive = falling curve, mostly with a smaller effect; inactive = flat or rising curve; cell line not stated here;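 further: intracellular cAMP measured with PDE inhibitor Ro 20-1724 present during compound exposure; potency means the concentration at half of the fitted maximal effect; on the % scale 0 is the no-effect control and ±100 the full control effect; nearly all actives have a fitted effect of over 65% in size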
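G418-selected cells were plated in DMEM/10% FBS for 16-24 h at 37C, then treated with compounds plus the PDE inhibitor […] (300 uM solution added) for 30 min at 37C. Intracellular cAMP was measured by HTRF after 30 min lysis at room temperature.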
Sfp PPTase inh – qHTS Assay for Inhibitors of Bacillus subtilis Sfp phosphopantetheinyl transferase (PPTase). 4'-phosphopantetheinyl transferase ffp (Bacillus subtilis), Q9F4F7. Biochemical Sfp PPTase activity, qHTS. Potency, µM, for the others: max response, negative = inhibition, most hits filed as inhibitors. hit rate 3.5% among 310,000. AID 1490, 2009; active means well fitted inhibition curve with a large enough effect; inconclusive means small, poorly fitted or top-dose-only effect, or another doubt; inactive means no such curve, though single readings can be large or run the other way;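 further: the enzyme is Sfp with the accession as filed and its product quenches rhodamine fluorescence; potency means the concentration at half of the fitted maximal effect; 0% = enzyme reaction without inhibitor and -100% = no enzyme wells; top concentration of the series not given in the record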
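Buffer: 50 mM Hepes-Na pH 7.6, 10 mM MgCl2, 0.01% Nonidet P-40, 0.01% BSA. Enzyme 15 nM, pre-exposed to compound 15 min; substrates then added and fluorescence change tracked over 30 min.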
ClpP mod – qHTS Assay for Activators of ClpP | ATP-dependent Clp protease proteolytic subunit (Bacillus subtilis (strain 168)), P80244 | purified B. subtilis ClpP, FRET peptide cleavage, 20 min | Potency, µM (titrated, usually from 57.5 µM), inactives show at the top dose activity change, negative = active | hit rate 1.9% among 340,000 | AID 651965, 2013; active = well fitted falling curve with a large enough effect; inconclusive = small, poorly fitted or top-dose-only effect; inactive = no such curve, though single readings can be large or run the other way; further: potency means the concentration at half of the fitted maximal effect; the source files actives as falling curves though it sought activators and does not explain the sign; nearly all actives have a fitted effect of over 65% in size; many hits overshoot -100%
Target sequence (P80244 whole entry, looked up): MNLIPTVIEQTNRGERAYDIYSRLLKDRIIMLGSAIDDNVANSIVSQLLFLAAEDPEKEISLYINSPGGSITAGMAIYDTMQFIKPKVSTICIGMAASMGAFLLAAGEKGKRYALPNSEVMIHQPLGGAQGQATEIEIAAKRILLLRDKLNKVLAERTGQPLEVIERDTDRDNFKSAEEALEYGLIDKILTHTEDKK
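Purified B. subtilis ClpP, 10 microg/mL final in Tris/HCl pH8 with KCl, BSA, glycerol and Tween-20, cleaved an Abz/nitrotyrosine-quenched decapeptide. Fluorescence (ex 320, em 430) was read at 0 and 20 min at room temperature. Delta was normalized to 5.8 microM ADEP and DMSO/no-enzyme controls.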
gsp ag – qHTS for Agonist of gsp, the Etiologic Mutation Responsible for Fibrous Dysplasia/McCune-Albright Syndrome: qHTS; gsp mutant cells, cAMP HTRF, 30 min; control for the full effect not named in the record; Potency, µM (doses to about 76.9 µM), for inactives: at the top dose activation (cAMP increase), actives largely listed as activators; hit rate 0.13% among 340,000; AID 624287, 2012; active = well fitted activation curve with a large enough effect; inconclusive = small, poorly fitted or top-dose-only effect, or another doubt; inactive = no such curve, though single readings can be large or run the other way; cell line not stated here;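 further: phosphodiesterase inhibitor Ro 20-1724 added with compounds to block cAMP breakdown; potency means the concentration at half of the fitted maximal effect; nearly all actives have a fitted effect of over 60% in size; about a fifth of the inactives were tested at one dose only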
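Cells stably selected in G418 were plated at 2000/well, grown 16-24 hr, then given compounds in DMSO with the PDE inhibitor […] (300 uM solution added) for 30 min at 37C; cAMP was read by HTRF.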
Menin MLL FP FL – qHTS Assay for Inhibitors Targeting the Menin-MLL Interaction in MLL Related Leukemias: Competition With Fluorescein Labeled MLL-derived Peptide. 290,000 tested, under 10 active. FP activity change, % at 61.4 µM. AID 1766, 2009. Fluorescence polarization, fluorescein-MLL peptide displacement from menin; inconclusive = falling polarisation curve, or a change in total fluorescence; inactive = total fluorescence flat and polarisation flat or rising; no compound was filed as active; the % refers to the polarisation; negative = inhibition;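 further: % of control where 0% means no effect; inhibitors lower the polarisation; unlabelled MLL peptide was the positive control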
CtBP-E1A blk – qHTS Assay for Inhibitors of the CtBP/E1A Interaction. hit rate 0.49% among 340,000. AID 651724, 2012. AlphaScreen GST-E1A/His-CtBP binding, 1536-well; stronger effect = lower value; control for the full effect not named in the record. activity change, % (no concentration beside the values); in the data active means activity change below about -65%; inconclusive means about -30% to -65%; inactive means above about -30%; further: on the % scale 0 is the no-effect control and ±100 the full control effect; compound concentration not given in the record
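Homogeneous bead-based format: GST-tagged E1A captured on glutathione donor beads, His-tagged CtBP on nickel acceptor beads; compounds precede bead addition by 2 h at 37 °C.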
* marks the source's active call; other numbers are inactive results; ? = inconclusive; · = not tested or not shown; & = joins results of further samples; [ ] = dose if it differs, or a comment.

SMILES	TRPV1 PAM	gsp antagonist	Sfp PPTase inh	ClpP mod	gsp ag	Menin MLL FP FL	CtBP-E1A blk
Oc1[nH]c2ccccc2c1C=Nc1ccccc1	·	4%	28%	-0.6%	2%	6.0	-1
Fc1ccc(-n2cc(-c3ccccc3)c3c(=S)nc[nH]c32)cc1	0	-21%	14%	·	-13%[15.4 µM]	-1.4	-20
COc1ccc(S(=O)(=O)N2CCC(C(=O)Nc3cc(Cl)ccc3N3CCOCC3)CC2)cc1OC	8	-11%	·	·	-3%[15.4 µM]	·	-8
CCOc1cc(/C=N/O)cc(Br)c1OC	3	-10%	26%	-1.0%	-38%[inhibitor]	1.3	13
NC(=O)CC(NC(=O)c1ccc(Br)cc1)c1ccc(N2CCCCCCC2)c([N+](=O)[O-])c1 (stereo not given)	9	-16%	6%	-1.5%	-3%	-0.3	·
Cc1ccc(S(=O)(=O)N2CCCCC2C(=O)O)s1 (stereo not given)	5	11%	22%	·	10%	-3.4	-18
O=C(O)CC(SCC(=O)Nc1ccc(Cl)c(S(=O)(=O)N2CCOCC2)c1)C(=O)O (stereo not given)	4	16%	9%	-1.8%	?	0.1	-2
C=CCn1c(=O)c2c(C)c(C)sc2n2c(Nc3ccc(OC)cc3)nnc12	-3	-22%	17%	-0.2%	27%	-1.7	-8
O=C(COc1ccc(F)cc1)Nc1c(C(=O)N2CCC(N3CCCCC3)CC2)oc2ccccc12	11	9%	6%	-1.7%	28%	·	·
CC(C)Cn1c(N)c(C(=O)COC(=O)[C@@H]2CCCN2C(=O)c2cccs2)c(=O)n(C)c1=O	-3	-7%	14%	·	13µM*	1.6	-1
COc1ccc(-n2c(SCCC#N)nnc2-c2cc(Cl)ccc2OC)cc1Cl	-9	6%	2%	6.0%	-3%	-1.8	0
CC(C)C[C@H]1CNC(=S)N1CC1CCCN1C[C@H](Cc1ccc(O)cc1)N1C[C@H](Cc2ccccc2)N(CC2CCCCC2)C1=S (stereo not given in full)	·	3%	·	0.3%	·	·	-21
COc1ccc(N/C(N)=N/c2nc(CSc3nnc(C)s3)cc(=O)[nH]2)cc1	13	-2%	14%	·	-8%[15.4 µM]	2.3	·
CN1C(=O)/C(=C/c2ccc(OCc3ccccc3F)cc2)NC1=S	-1	4%	10%	1.4%	-36%[inhibitor]	-5.7	·
Cc1nc(C)c(C(=O)N2CCCC(C(=O)c3cc(F)ccc3F)C2)s1 (stereo not given)	-8	2%	-7%	-3.7%	22%[15.4 µM]	-4.0	-2
COc1ccc(S(=O)(=O)NC2CCCCC2)cc1-n1cnnn1	-14	-4%	8%	·	0%[15.4 µM]	-2.0	9
O=C(CSc1nnc(-c2ccncc2)n1-c1ccc(Cl)cc1)NCc1cccs1	-17	-6%	22%	-3.6%	?	2.4	7
O=C(NC(NC(=S)Nc1ccc(Cl)c(Cl)c1)C(Cl)(Cl)Cl)c1ccco1 (stereo not given)	·	?	?	3.7%	-8%	2.4	-1
Cc1cc(C(=O)O/N=C(\N)c2ccc(C(C)(C)C)cc2)no1	?	-6%	-3%	-1.7%	-16%	1.9	·
CC(=O)Nc1ccc(OCCCNC(=O)c2c(-c3ccccc3)noc2C)cc1	-7	0%	21%	0.7%	-3%[15.4 µM]	3.9	5
COc1ccc(CN2CCNC(=O)C2CC(=O)N(C)Cc2ccon2)c(OC)c1 (stereo not given)	11	6%	9%	·	5%	0.6	3
O=C(c1cccc(S(=O)(=O)N2CCCCC2)c1)N1CCN(Cc2ccccc2)CC1	-12	-10%	·	2.4%	8%	·	6
Cc1ccc2c(c1)C(=O)N1[C@H]3c4cc(Cl)ccc4OC[C@@H]3[C@H](c3ccccc3)[C@]1(C)C(=O)N2	·	-4%	·	-9.7%	·	·	-3
CCCn1c(N)c(N(CCOC)C(=O)c2ccccc2)c(=O)[nH]c1=O	-11	6%	-8%	·	1%	-1.8	7
COCCN1C(=O)C(C(=O)OC)CC2=C1CC(C)(C)CC2=O (stereo not given)	·	-2%	·	-1.6%	·	·	2
Clc1ccccc1OCCCCn1ccnc1	4	10%	10%	-0.2%	3%	-1.3	-1
CC(C)c1ccc(/C=N/N2CCCCC2)cc1	6	·	63µM*	·	-10%[15.4 µM]	-0.8	-21
CCC(C)Nc1cc(C)nc2ncnn12 (stereo not given)	2	15%	25%	1.3%	-2%	-2.6	6
CS(=O)(=O)N(CC(=O)Nc1ccc2c(c1)OCCO2)Cc1ccc(Cl)cc1	1	-3%	-1%	1.4%	-6%	-0.3	0
Cc1cccc(OCCSc2nc3c([nH]2)c(=N)ncn3Cc2ccccc2)c1	-2	-19%	-2%	3.3%	-8%	-8.7	-2
O=C(NC(=S)Nc1ccccc1Br)C1CC1	·	-5%	·	-1.0%	14%	·	-11
CC(=O)CC(=O)Nc1ncccn1	4	4%	13%	·	-39%[inhibitor]	1.2	0
O=C(/C=C/c1ccco1)Nc1nc(-c2ccc(F)c(F)c2)cs1	-14	-18%	22µM*	-5.0%	-5%	6.2	·
Cc1ccc2nc(SCC(=O)NC3CCCCC3)nc(=O)n2c1	-4	17%	·	?	?	·	-1
CC(C)CCn1c(N2CCCC2)nc2c1c(=O)n(C)c(=O)n2C	-2	-11%	15%	-0.7%	20%	2.8	·
CCC(C)(C)NC(=O)C(c1ccc(F)cc1)N(Cc1cccc(OC)c1)C(=O)c1cnccn1 (stereo not given)	-11	1%	19%	·	-9%	0.6	-23
CCCCCCC(=O)Nc1c2c(nc3ccccc13)N(C)CC2	10	-6%	10%	28µM*	2%	-0.9	2
COc1ccccc1C(=O)NC(=S)Nc1ccc(N2CCOCC2)c(Cl)c1	4	0%	32µM*	1.4%	-35%[inhibitor]	2.6	-3
O=C(CCN1CCN(S(=O)(=O)c2ccc(Cl)cc2)CC1)Nc1ccc(F)cc1	-27	-4%	11%	1.5%	-22%	·	-12
O=C(NNC(=O)c1ccc(Cl)cc1Cl)c1cccs1	5	-2%	19%	·	-17%[15.4 µM]	0.2	3
C=CCNC(=O)c1ccc(Sc2ccccc2)c([N+](=O)[O-])c1	-6	-3%	-2%	1.0%	-34%[inhibitor]	-0.9	5
Cc1nc2scc(C)n2c(=O)c1S(=O)(=O)Nc1ccc(N2CCN(C(=O)C(C)C)CC2)cc1	-4	?	-11%	0.1%&2.5%	-5%	-6.5	·
CCCCOc1cccc(C(=O)NNC(=S)NC2CCCCC2)c1	15	-5%	6%	25µM*	0%	-0.8	-9
COc1ccc(-c2nn(-c3ccccc3)cc2C(=O)NC2CC2)cc1	-15	-11%	·	-14%	-25%	·	·
CC(C)(C)Sc1ccccc1S(=O)(=O)C(C)(C)C	·	9%	19%	1.7%	-1%	-0.1	8

Retrieved by compound from above:
SMILES	TRPV1 PAM	gsp antagonist	Sfp PPTase inh	ClpP mod	gsp ag	Menin MLL FP FL	CtBP-E1A blk
O=C(/C=C/c1ccco1)Nc1nc(-c2ccc(F)c(F)c2)cs1	-14	-18%	22µM*	-5.0%	-5%	6.2	·
Cc1ccc2nc(SCC(=O)NC3CCCCC3)nc(=O)n2c1	-4	17%	·	?	?	·	-1
COc1ccccc1C(=O)NC(=S)Nc1ccc(N2CCOCC2)c(Cl)c1	4	0%	32µM*	1.4%	-35%[inhibitor]	2.6	-3
CCC(C)(C)NC(=O)C(c1ccc(F)cc1)N(Cc1cccc(OC)c1)C(=O)c1cnccn1 (stereo not given)	-11	1%	19%	·	-9%	0.6	-23

The results go on.
SMILES	TRPV1 PAM	gsp antagonist	Sfp PPTase inh	ClpP mod	gsp ag	Menin MLL FP FL	CtBP-E1A blk
Cc1ccc(-n2cccc2/C=C2/C(=N)N3C(=NC2=O)SN=C3S(C)(=O)=O)cc1Cl	-17	-12%	89µM*	-0.5%	-6%	?	-2
CCOc1ccccc1NC(=O)C1CCCN(S(C)(=O)=O)C1 (stereo not given)	4	7%	4%	·	-3%	0.4	-18
Cc1sc2nc(SCc3nc(-c4cccs4)no3)n(-c3ccccc3)c(=O)c2c1C	-9	7%	4µM*	-4.9%	3%	11	10
CC(=O)Nc1ccc(C(=O)NCCCOC(C)C)cc1	13	12%	9%	-1.1%	?	3.7	6
COc1ccc(OC(=O)COc2ccc(C)cc2)cc1	-2	?	13%	-0.4%	-87%[inhibitor]	1.7	1
CC(C)CN1CCN(C2CCN(C(C)C)CC2)C(CCO)C1 (stereo not given)	-3	·	8%	·	·	-5.8	·
COc1cccc(OC)c1C(=O)Nc1sc2c(c1C#N)CCC2	3	-4%	40µM*	0.3%	24%[15.4 µM]	1.2	3
CC(C)c1ccc(N(CC(=O)NCCCN2CCOCC2)S(=O)(=O)c2ccccc2)cc1	7	8%	·	1.5%	11%[15.4 µM]	·	-1
CC(OC(=O)CCCc1nc2ccccc2s1)C(N)=O (stereo not given)	6	5%	-1%	1.2%	-10%	-1.6	12
Cc1cc(OCC(=O)C(C)(C)C)c2c(-c3ccccc3)cc(=O)oc2c1	-7	-27%	-8%	-6.5%	41%	0.6	0
O=c1cc(CCl)nc(Cc2c(Cl)cccc2Cl)[nH]1	·	-16%	·	0.4%	-4%[15.4 µM]	·	4
CCN(CC)C(=O)Cn1cc(S(=O)(=O)CC(=O)Nc2ccccc2C)c2ccccc21	·	1%	·	28µM*	-2%[15.4 µM]	·	1
Cc1cc(-n2nnc3ccccc32)nc2ccccc12	4	-5%	-7%	-5.2%	22%	2.8	5
Cc1ccc(NC(=O)CN(C)C(=O)COc2ncnc3ccc(Br)cc23)cc1	-9	19%	·	0.5%	?	·	10

Not a hit list (roughly 5.3% active in at least one column).
